Screening results deposited in PubChem BioAssay by National Center for Advancing Translational Sciences (NCATS).
miR-21 reporter: qHTS Assay for Modulators of miRNAs and/orActivators of miR-21. HeLa miR-21 FLuc reporter, luciferase, 48 h. Potency, µM (doses to about 38.3 µM), for the others: at the highest dose reporter change, positive = more light. 340,000 tested, under 10 active. AID 2288, 2010; active = well fitted rising curve with a large enough effect; inconclusive = small, poorly fitted or top-dose-only effect; inactive = no such curve, though single readings can be large or run the other way;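 further: % of control where 0% means no effect; miR-21 action dims this reporter so a rising signal means less miR-21 action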
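HeLa cells stably expressing CMV-driven firefly luciferase with a downstream miR-21 binding sequence, endogenously expressing miR-21, were treated with titrations (up to about 40uM final) for 48 hours at 37 degree Celsius. Luciferase luminescence was read after lysis.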
GLA inh pH 4.5: qHTS Assay for Inhibitors of Human alpha-Galactosidase at pH 4.5 | activity change, negative = inhibition, % at 105 µM | purified enzyme, 4-MU-alpha-Gal fluorescence, pH 4.5 | Alpha-galactosidase A (Homo sapiens), P06280 | AID 1467, 2008 | 230,000 tested, under 10 active; inconclusive = small, poorly fitted or top-dose-only inhibition, or a rising curve; inactive = flat fitted curve, though single readings scatter; no compound was filed as active;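 further: 0% = full activity with enzyme and -100% = basal without enzyme; dose as in the result columns while the protocol names 77 µM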
Rango dissoc inh: qHTS Assay for Inhibitors of RanGTP induced Rango (Ran-regulated importin-beta cargo) - Importin beta complex dissociation | Snurportin-1 (Homo sapiens) + GTP-binding nuclear protein Ran (Homo sapiens) + Importin … | Biochemical FRET Rango-importin beta, RanGTP-induced dissociation | Potency, µM (titrated, usually from 46.1 µM), without a hit: at the top dose activity change, negative = inhibition | 340,000 compounds, 0.071% hits | AID 540253, 2011; active means falling FRET ratio curve, often poorly fitted, with flat reads before Ran was added; inconclusive means other falling curves, or compound fluorescence or quenching; inactive means flat or rising ratio curve;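 further: potency means the concentration at half of the fitted maximal effect; % of control where 0% means no effect; nearly all actives have a fitted effect of over 45% in size; -100% = wells without RanGTP and RCC1; the record marks most hits as doubtful in a second field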
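Quantitative HTS using a FRET biosensor: 0.1 uM Rango, 0.25 uM importin beta, 0.6 uM Ran, 2 mM GTP, 0.2 uM RCC1 final, PBS with DTT, Tween-20 and BSA. Post-read taken 45 min after Ran addition.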
Rango complex inh: qHTS Assay for Inhibitors of Rango (Ran-regulated importin-beta cargo) - Importin beta complex formation | Importin subunit beta-1 (Homo sapiens), Q14974 | Rango CFP/YFP FRET sensor + importin beta, 45 min | Potency, µM (series often up to 92.2 µM), inactives show at the highest dose inhibition of complex formation | 340,000 compounds, 0.031% hits; active = rising FRET ratio curve, often small or poorly fitted; inconclusive = mostly compound fluorescence or quenching in the first reads; inactive = flat curves in all reads;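 further: potency means the concentration at half of the fitted maximal effect; 0% = DMSO wells and 100% = buffer wells lacking importin beta; nearly all actives have a fitted effect of over 15% in size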
Target sequence (Q14974 whole entry, looked up): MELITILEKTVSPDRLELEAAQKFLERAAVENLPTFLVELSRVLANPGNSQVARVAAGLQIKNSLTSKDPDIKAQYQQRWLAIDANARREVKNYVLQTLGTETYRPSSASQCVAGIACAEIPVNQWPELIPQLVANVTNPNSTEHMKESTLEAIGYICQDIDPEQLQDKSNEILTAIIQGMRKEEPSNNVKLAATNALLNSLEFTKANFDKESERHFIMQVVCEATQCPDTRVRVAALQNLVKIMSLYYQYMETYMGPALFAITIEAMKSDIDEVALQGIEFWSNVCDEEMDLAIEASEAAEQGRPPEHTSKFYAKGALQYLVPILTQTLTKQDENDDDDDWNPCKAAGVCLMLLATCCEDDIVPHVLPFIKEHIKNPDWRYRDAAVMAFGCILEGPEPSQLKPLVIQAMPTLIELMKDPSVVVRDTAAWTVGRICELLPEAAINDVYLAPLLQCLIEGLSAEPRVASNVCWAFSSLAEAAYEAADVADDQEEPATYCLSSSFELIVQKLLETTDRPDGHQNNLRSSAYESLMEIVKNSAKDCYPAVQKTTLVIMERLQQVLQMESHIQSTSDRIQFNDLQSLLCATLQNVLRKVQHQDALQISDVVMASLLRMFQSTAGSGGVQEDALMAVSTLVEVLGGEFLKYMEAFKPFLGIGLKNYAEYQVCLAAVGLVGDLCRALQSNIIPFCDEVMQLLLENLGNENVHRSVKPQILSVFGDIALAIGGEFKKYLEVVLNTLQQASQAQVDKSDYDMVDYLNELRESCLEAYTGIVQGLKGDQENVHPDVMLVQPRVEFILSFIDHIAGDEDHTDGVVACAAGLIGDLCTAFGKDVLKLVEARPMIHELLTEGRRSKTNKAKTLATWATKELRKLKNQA
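FRET biosensor (snurportin 1 IBB flanked by EYFP and cerulean), 50 nM, with compound 5 min, then 0.125 microM importin beta in PBS, 1 mM DTT, 0.02% Tween-20, 0.1% BSA. CFP/YFP ratio read after 45 min at room temperature; pre-read flags interference.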
An asterisk follows results filed as active; ? = inconclusive; . = no result given; & = joins results of further samples.

no.	miR-21 reporter	Compound	GLA inh pH 4.5	Rango dissoc inh	Rango complex inh
1	-1.4%	Cc1ccc(NC(=O)CC2C(=O)NC3CCCCC3N2C(=O)c2ccc(F)cc2)cc1C (stereo not given)	-1.4	12.0%	-0.7%
2	19.6%	CCCC(=O)Nc1ccc(C(=O)/C=C/c2ccc(SC)cc2)cc1	0.4	-28.5%	?
3	-1.1%	CCOc1ccc(NC(=S)N2CCCN(Cc3cccc(Cl)c3)C2)cc1	-10.0	-4.6%	-0.6%
4	-1.9%	COc1cc(C(=O)N2CCSCC2)ccc1OC1CCN(C(C)=O)CC1	.	10.9%	-0.7%
5	6.1%	COc1cccc(CN2CCNC(=O)C2CC(=O)NCc2cn3ccc(C)cc3n2)c1OC (stereo not given)	0.5	-9.8%	-1.6%
6	-16.6%	CCNC(=S)NNc1nncc2ccccc12	4.3	-3.4%	-0.5%
7	-3.6%	Cc1c(Nc2cc(N3CCOCC3)c3nonc3c2[N+](=O)[O-])c(=O)n(-c2ccccc2)n1C	-4.3	.	.
8	15.2%&14.0%	CCOc1ccccc1CNC(=O)c1cc2oc3ccccc3c2n1CC	-2.6	32.9%	6.0%
9	-13.1%	COc1cc([N+](=O)[O-])ccc1NC(=O)NNC(=O)c1sccc1C	.	1.9%	-1.7%
10	7.0%	Cc1ccccc1OCC(=O)N(CC(C)C)c1c(N)n(CC(C)C)c(=O)[nH]c1=O	0.3	5.7%	1.8%
11	-31.8%	Cc1cccc(N=C2NN=C(c3ccccc3F)CS2)c1C	-6.1	1.1%	5.0%
12	-1.3%	O=C1CCC([N+](=O)[O-])C(c2ccc(Cl)cc2)N1 (stereo not given)	-2.8	-10.0%	-1.5%
13	-1.2%	O=C(COC(=O)C1COc2ccccc2O1)NC(=O)NC1CCCC1 (stereo not given)	3.2	1.7%	1.9%
14	-35.1%	Cc1cc(/C=C2\SC(=S)NC2=O)c(C)[nH]1	-8.5	?	?
15	0.2%	C=CCc1ccccc1OCC(O)CN1CCN(c2ccc(C)cc2)CC1 (stereo not given)	-3.8	-16.1%	-0.5%
16	-12.2%	O=C(NN1C(=O)C2C3CCC(O3)C2C1=O)c1ccco1 (stereo not given)	4.4	13.4%	2.5%
17	-3.2%	O=C(CSC(=S)N1CCOCC1)Nc1nccs1	6.5	-10.2%	-0.4%
18	-0.9%	Cc1cc(C)c(NC(=O)c2ccc3c(c2)C(=O)N(Cc2cccnc2)C3=O)c(C)c1	.	-3.5%	0.0%
19	-28.4%	CCCCNC(=S)NC(=O)c1ccc(Cl)cc1Cl	-0.4	9.4%	-2.0%
20	.	COc1ccc(N2C(=S)N(C(=O)c3ccccc3)C(=Nc3ccccc3)C2=Nc2ccccc2)cc1	.	-2.5%	-0.7%

Reprinted from the part before: 3 compounds, then new ones.
no.	miR-21 reporter	Compound	GLA inh pH 4.5	Rango dissoc inh	Rango complex inh
18	-0.9%	Cc1cc(C)c(NC(=O)c2ccc3c(c2)C(=O)N(Cc2cccnc2)C3=O)c(C)c1	.	-3.5%	0.0%
19	-28.4%	CCCCNC(=S)NC(=O)c1ccc(Cl)cc1Cl	-0.4	9.4%	-2.0%
20	.	COc1ccc(N2C(=S)N(C(=O)c3ccccc3)C(=Nc3ccccc3)C2=Nc2ccccc2)cc1	.	-2.5%	-0.7%
21	5.0%	CCOC(=O)c1c(C)oc2ccc(OC(=O)N3CCOCC3)cc12	-1.5	0.7%	-1.9%
22	-2.6%	CCOC(=O)CSc1nc(C(C)(C)C)nc2ccccc12	-30.7	-6.5%	-4.5%
23	-0.9%	CCOC(=O)C(NC(=O)Cc1ccccc1)(Nc1cc(C)on1)C(F)(F)F (stereo not given)	-0.1	1.1%	0.6%
24	-19.9%	CCc1ccc(OCC(=O)NNC(=S)NC(=O)C2CCCCC2)c(Br)c1	.	-9.7%	4.4%
25	-13.5%	COc1ccc2c(c1OC)C(=O)N(c1ccc3c(c1)CCC3)C2=O	2.8	-1.9%	-8.8%
26	-7.4%	COc1ccc(S(=O)(=O)N(CC(=O)NCc2ccncc2)c2ccc(C)cc2)cc1OC	.	3.7%	-2.0%
27	-3.8%	CCOc1ccc(-n2c(SCC(=O)Nc3ccc4c(c3)OCO4)nc3ccccc3c2=O)cc1	-4.3	-5.5%	-5.2%
28	-11.7%	COc1ccc(Cc2n[nH]c(=S)n2Cc2ccccc2)cc1Cl	1.2	-12.8%	-1.3%
29	4.1%	C=CCN1C(=O)/C(=C/C=C2/N(CC)c3ccc(S(=O)(=O)N(C)C)cc3N2CC)SC1=S	4.0	10.5%	?
30	-1.4%	CCOC(=O)C1CCCN(C(=O)Cn2c(=O)c3cccn3c3cccnc32)C1 (stereo not given)	.	?	?
31	-6.8%	CCCCC(=O)Nc1nnnn1CCC	1.0	17.0%	-0.1%
32	-11.7%	CC(=O)N1N=C(c2ccco2)CC1c1cccs1 (stereo not given)	0.1	2.8%	-0.5%
33	?	CCOC(=O)c1c(NC(=O)c2c(-c3ccccc3)noc2C)sc(C)c1-c1ccccc1	-1.6	5.3%	8.1%
34	5.3%	CN(C)Cc1ccc(F)cc1Sc1cc(Cl)ccc1Cl	-2.6	1.8%	1.0%
35	-8.4%	O=c1[nH]c(C2CC2)nc2sc3c(c12)CCCC3	6.4	11.7%	-0.6%
36	-3.3%	CCN(CC)c1ccc(/C=N/NC(=O)C(O)c2ccccc2)cc1 (stereo not given)	17.4	-9.3%	-0.4%
37	13.1%	COc1cccc(N/C(=N/C(=S)Nc2ccc(C)cc2C)Nc2nc(C)cc(C)n2)c1	5.3	9.1%	-4.1%
38	-3.9%	O=C(Cn1cnc2c(cnn2-c2ccc(Cl)cc2)c1=O)NC1CCCCC1	6.2	-0.2%	-2.0%
39	0.0%	CCOc1ccccc1NC(=O)C1CCCCN1S(=O)(=O)c1ccc(F)cc1 (stereo not given)	-3.7	19.1%	5.8%
40	22.5%	CCN(CC)C(C)C#CCC(c1ccccc1)c1ccccc1 (stereo not given)	-6.7	.	.
41	1.5%	COc1ccc(NC(=O)CSc2nc(O)c(Cc3ccccc3)c(=O)[nH]2)cc1	-10.3	0.2%	0.0%
42	.	COC(=O)C[C@H]1c2cc(F)ccc2S(=O)(=O)N1Cc1ccccc1	.	9.4%	-0.9%
43	-0.2%	OC(COC1CCCCC1)CN1CCN(c2ccccc2)CC1 (stereo not given)	5.4	11.1%	-3.9%
44	?	CN(c1cccc(NC(=O)CN(c2ccc(Cl)c(Cl)c2)S(=O)(=O)c2ccccc2)c1)S(C)(=O)=O	-4.9	-8.1%	-0.4%
45	-0.7%	Cc1cccc(-c2nc(C#N)c(N3CCC(C)CC3)o2)c1	.	17.6%	-0.6%
46	-53.8%	Cc1ccc(OCCn2cnc3ccccc3c2=O)c([N+](=O)[O-])c1	-6.2	-13.9%	-1.7%
47	.	O=C(NN=Cc1ccc(O)cc1O)c1ccccc1NS(=O)(=O)c1cccs1	.	?	?
48	-6.4%	COc1ccc(-c2cc3ccccc3n2CC(O)CN2CCCCC2)cc1 (stereo not given)	-0.9	-11.4%	0.6%
49	.	Cc1ccc(S(=O)(=O)N2CCN(C(=O)CN3CCCSc4ccccc43)CC2)cc1	.	0.4%	0.5%
50	1.8%	Cc1ccc(OCC(=O)NCCN2CCOCC2)cc1C	-3.2	11.6%	-0.6%
51	18.0%	COc1ccc(NC(=O)N2CCCC(c3nc(-c4ccc(C(C)C)cc4)no3)C2)cc1 (stereo not given)	-1.9	-2.2%	0.1%
52	-5.9%	CCC(=O)NC(=S)Nc1cccc(-c2nc3ncccc3o2)c1	0.1	14.2%	-0.2%
53	4.6%&-5.6%	Cc1ccc(CNC(=O)CSCc2ccc(F)cc2)cc1	-2.0	-17.8%	3.6%
54	.	COc1ccc(NC(=O)c2ccc(Cl)nc2)cc1S(=O)(=O)N1CCOCC1	.	24.9%	-1.5%
55	-3.2%	COc1ccc(C2OC(=O)CC2C(=O)NC(C)C)cc1 (stereo not given)	2.7	1.4%	-6.2%
56	-7.4%	Cc1ccc(S(=O)(=O)n2nc(OC(=O)c3c(-c4ccccc4Cl)noc3C)cc2N)cc1	3.2	1.6%	0.6%
57	-5.5%	O=C(NCc1ccccc1Cl)c1ccc2nc[nH]c2c1	3.0	-19.4%	-2.2%
58	3.9%	COc1ccc(C)cc1Nc1ccc(C(=O)O)cc1[N+](=O)[O-]	-6.0	0.8%	-1.3%
59	-47.7%	O=C(NC(=S)N1CCc2ccccc21)c1ccccc1Br	-2.0	27.5%	-7.4%
60	1.0%	CCc1ccc(/C=C2\SC(=S)N(CCC(=O)NCCCN3CCOCC3)C2=O)cc1	.	-8.2%	0.8%
61	-27.9%	CC(C)Nc1nc(NC(C)C)nc(N(C)C(N)=O)n1	-7.1	19.7%	2.8%
62	-0.9%	COc1ccccc1-c1c(C)nn2c(N3CCC(C(N)=O)CC3)cc(C)nc12	2.1	-18.3%	0.7%
63	-12.4%	CSc1ccccc1C(=O)NCCOc1cccc(C)c1	-1.9	1.6%	0.6%
64	-0.3%	Cc1ccc(S(=O)(=O)N2CCOCC2)cc1NC(=O)COC(=O)CCn1c(C)csc1=O	.	16.2%	1.4%
65	-3.2%	O=C(c1ccc(F)cc1)c1cn[nH]c1-c1ccccc1O	-4.0	1.1%	0.0%
66	-18.4%	Cc1ccc(NC(=O)NCCCCc2ccccc2)cc1	.	1.9%	-0.9%
67	-4.5%	Cc1nnc(NC(=O)c2ccccc2C(=O)O)s1	-9.9	15.0%	11.5%
68	12.0%	CC(C)(Oc1ccc(Cl)cc1)C(=O)N1CCN(c2ccccn2)CC1	-4.1	-5.6%	0.1%
69	.	Nc1ccc(N2C(=O)c3ccccc3C2=O)c(Cl)c1	-5.7	0.4%	-3.6%
70	-30.3%	Cc1cc(/C(N)=N/OC(=O)Nc2ccc(Cl)cc2)no1	-1.9	-0.7%	4.9%
71	7.4%	Cc1cc(C)c(C#N)c(SCc2nnc(-c3ccccc3)o2)n1	1.7	?	?
72	-6.3%	COC(=O)Cc1[nH]nc2c1C1(C(=O)N(Cc3ccc(Cl)cc3)c3ccccc31)C(C#N)=C(N)O2 (stereo not given)	-11.7	6.8%	3.3%
73	-8.7%	CC(=O)c1cccc(S(=O)(=O)NC2CCCCCC2)c1	-6.1	-13.4%	-2.0%
74	-7.1%	CCn1c(SCC(=O)NC2CCCC2)nnc1-c1c[nH]c2ccccc12	5.5	-2.4%	1.6%
75	-4.1%	CCOc1ccc(N2C(=O)CC(NCCc3ccncc3)C2=O)cc1 (stereo not given)	7.9	9.2%	-1.9%
76	.	CCCCn1c(N)c(N(CC(C)C)C(=O)CSc2nnc(C)n2-c2ccc(OC)cc2)c(=O)[nH]c1=O	.	-7.5%	2.6%
77	?	CCC1(C)Cc2c(sc3[nH]c(=S)n(Cc4ccccc4)c(=O)c23)CO1 (stereo not given)	-2.5	-7.4%	-0.3%
78	-5.3%	Cc1ccc(CC(NC(=O)c2ccccc2)C(=O)N2CCCC2C(=O)O)cc1 (stereo not given)	3.5	12.8%	-2.6%
79	4.0%	COc1ccc(NC(=O)CSc2nc3sc(C)cc3c(=O)n2C)c(OC)c1	.	0.6%	6.0%

3 entries picked at random from the list so far:
no.	miR-21 reporter	Compound	GLA inh pH 4.5	Rango dissoc inh	Rango complex inh
61	-27.9%	CC(C)Nc1nc(NC(C)C)nc(N(C)C(N)=O)n1	-7.1	19.7%	2.8%
66	-18.4%	Cc1ccc(NC(=O)NCCCCc2ccccc2)cc1	.	1.9%	-0.9%
70	-30.3%	Cc1cc(/C(N)=N/OC(=O)Nc2ccc(Cl)cc2)no1	-1.9	-0.7%	4.9%

Some of the compounds tested; count on the stated rates, not on these rows.
